# SARS PLP yeast – inhibitors of SARS-CoV papain-like protease in yeast. AID 485353. S. cerevisiae expressing SARS-CoV PLpro, growth rescue; control for the full effect not named in the record. Potency, µM (highest dose often 32.9 µM), for inactives: top-dose activity, positive = growth rescue. hit rate 0.19% among 330,000; further: 0% is about no effect; nearly all actives have a fitted effect of over 55% in size; growth read by luminescence after 48 h
# StopGo reporter – FMDV 2A StopGo reporter, luciferase signal | human cells with a luciferase reporter of 2A StopGo recoding; control for the full effect not named in the record | Potency, µM (series often up to 57.9 µM), for inactives: top-dose signal change, negative = less light | hit rate 1.2% among 410,000; active = well fitted falling curve with a large enough effect; inconclusive = small, poorly fitted or top-dose-only effect; inactive = no such curve, though single readings can be large or run the other way; tested in HEK293T cells; further: on the % scale 0 is the no-effect control and ±100 the full control effect; nearly all actives have a fitted effect of over 45% in size; luciferase light after 4 h
# RE007 growth inh – less growth of the S. pombe RE007 Vpr strain. S. pombe RE007 Vpr strain, BacTiter-Glo ATP luminescence, 24 h; control for the full effect not named in the record. Potency, µM (doses to about 92.2 µM), for the others: at the top dose activity change, negative = less growth. hit rate 0.21% among 360,000; active = well fitted falling curve with a large enough effect; inconclusive = small, poorly fitted or top-dose-only effect; inactive = no such curve, though single readings can be large or run the other way;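 further: on the % scale 0 is the no-effect control and ±100 the full control effect; nearly all actives have a fitted effect of over 50% in size; the assay follows cell death caused by Vpr and the record does not say whether a fall means rescue or toxicity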
#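 Fission yeast strain RE007, carrying one chromosomally integrated HIV-1 vpr copy, was seeded at OD 0.01 in PMG+AL medium with 23 nL pinned compound. After 24 h at 30 °C and 99% humidity, viability was read by BacTiter-Glo luminescence.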
# Cruzain Triton – cruzain (T. cruzi) inhibition with detergent | P25779 | purified cruzain, Z-FR-AMC fluorescence, 0.01% Triton | Potency, µM, without a hit: max response, negative = inhibition, actives largely listed as inhibitors | hit rate 0.43% among 200,000; active means well fitted curve in the direction sought with a large enough effect; inconclusive means small, poorly fitted or top-dose-only effect, or another doubt; inactive means no such curve, though single readings can be large; an effect the other way counts as inactive or inconclusive;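 further: plate controls were neutral wells for no effect and buffer without enzyme for full effect; nearly all actives have a fitted effect of over 40% in size; top concentration of the series not given in the record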
# Target sequence (P25779 123-467 limits assumed): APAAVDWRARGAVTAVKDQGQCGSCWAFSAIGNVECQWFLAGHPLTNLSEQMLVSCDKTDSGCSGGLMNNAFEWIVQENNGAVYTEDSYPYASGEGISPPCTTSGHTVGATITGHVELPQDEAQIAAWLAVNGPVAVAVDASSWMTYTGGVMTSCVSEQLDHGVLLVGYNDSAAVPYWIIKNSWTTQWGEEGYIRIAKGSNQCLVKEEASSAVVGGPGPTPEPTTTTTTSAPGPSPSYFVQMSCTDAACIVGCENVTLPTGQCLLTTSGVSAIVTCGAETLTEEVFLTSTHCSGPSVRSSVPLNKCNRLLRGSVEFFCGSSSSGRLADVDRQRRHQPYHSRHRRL
#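 Cruzain (1.5 nM) preincubated 15 min at RT with compound in 100 mM sodium acetate pH 5.5, 5 mM DTT, 0.01% Triton X-100. Reaction started with 2 uM Z-FR-AMC; AMC fluorescence (ex 360/em 450 nm) change over 60 s gave rate.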
# NS1 function inh – blocks influenza NS1 protein function; hit rate 0.4% among 270,000; AID 2326; Potency, µM (top dose mostly 46.1 µM), for the others: at the highest dose activity, positive = more growth; S. cerevisiae slowed by influenza A NS1, growth recovery by OD600; further: actives are rising curves; nearly all actives have a fitted effect of over 50% in size
#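 OD600 was taken as the measure of yeast growth restored by compound in an NS1-expressing S. cerevisiae strain. Cells had been washed out of glucose medium and diluted 1:100 into galactose -URA medium, pH 6.0.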
# MARV entry inh – blocks Marburg virus binding to or entry into cells. Marburg virus pseudotyped entry inhibition, cell reporter; control for the full effect not named in the record; about a third of the inactives were read at about 46 µM. Potency, µM (titrated, usually from 37.8 µM), inactives show top-dose activity change, negative = inhibition, actives largely listed as inhibitors. hit rate 1.8% among 300,000. AID 540276; active = well fitted inhibition curve with a large enough effect; inconclusive = small, poorly fitted or top-dose-only effect, or effect the other way; inactive = flat fitted curve, though single readings scatter; tested in HEK293 cells; about a fifth of its hits are not listed in these tables; further: on the % scale 0 is the no-effect control and ±100 the full control effect; luciferase read-out
# LASV entry inh – Lassa virus entry inhibition | hit rate 1.2% among 300,000 | Lassa virus pseudotype entry inhibition, cell reporter; control for the full effect not named in the record | Potency, µM (doses to about 37.9 µM), without a hit: top-dose activity change, negative = inhibition, usual class: inhibitors | AID 540256; active means well fitted inhibition curve with a large enough effect; inconclusive means small, poorly fitted or top-dose-only effect, or effect the other way; inactive means flat fitted curve, though single readings scatter; tested in HEK293 cells; further: on the % scale 0 is the no-effect control and ±100 the full control effect; nearly all actives have a fitted effect of over 50% in size; luciferase read-out
# Cruzain inh noDet – blocks cruzain activity in detergent-free assay | P25779 | purified cruzain, Z-FR-AMC fluorescence, no detergent | Potency, µM, inactives show max response, negative = inhibition, actives largely listed as inhibitors | hit rate 2.3% among 200,000; active means well fitted curve in the direction sought with a large enough effect; inconclusive means small, poorly fitted or top-dose-only effect, or another doubt; inactive means no such curve, though single readings can be large; an effect the other way counts as inactive or inconclusive;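 further: plate controls were enzyme without inhibitor for no effect and buffer without enzyme for full effect; nearly all actives have a fitted effect of over 40% in size; top concentration of the series not given in the record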
#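 Detergent-free condition (0.00005% Triton X-100) in acetate buffer pH 5.5 with DTT. 1.5 nM enzyme and compound were pre-mixed 15 min, then 2 uM Z-FR-AMC substrate added; reaction progress from fluorescence change between first and third reads (60 s).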
# * hit, by the source's call; ? = inconclusive; . = no result given; & = joins results of further samples; [ ] = dose if it differs, or a comment. Unless noted, the call rests on the fitted dose curve; in most records, active means well fitted rising curve with a large enough effect; inconclusive means small, poorly fitted or top-dose-only effect; inactive means no such curve, though single readings can be large or run the other way. Potency means the concentration at half of the fitted maximal effect.
SMILES,SARS PLP yeast,StopGo reporter,RE007 growth inh,Cruzain Triton,NS1 function inh,MARV entry inh,LASV entry inh,Cruzain inh noDet
CCCc1cc(CNC(=O)C2CCC(=O)N(Cc3ccccc3F)C2)on1 (stereo not drawn),5.7%,10.5%,-2.5%,.,1.1%,-0.3%[46.1 µM],0.4%,.
C=CCOc1ccc(/C(CC)=N/O)c(OC)c1,-4.1%,39.1%[activator],-19.7%,2.2%,-5.1%,-12.5%,4.9%,4.5%
CC(=O)N1CCc2cc([N+](=O)[O-])ccc21,.,-6.1%,15.8%,.,.,-7.2%,19.0%,.
COc1ccc(CNC(=O)C/C(C)=N/NC(=O)Cc2ccc(OC)c(OC)c2)cc1,20.9%,-10.3%,10.3%,1.3%,-5.4%,3.4%,8.4%,16.0%
O=C(NC1CCCCC1)N1CCc2ccccc2C1,0.3%,32.9%[activator],18.4%,.,8.8%,?,17.8%,.
CC(C)(C)c1ccc(C(=O)Nc2ccc(C(=O)NCc3cccnc3)cc2)cc1,0.2%,?,3.4%,.,-1.5%,?,?,.
Cc1cc(C(=O)NC(=S)Nc2ccccc2N2CCOCC2)ccc1[N+](=O)[O-],1.2%,-29.5%,10.7%,-5.6%,9.4%,?,2.4%,-21.6%
COCCNC(=O)/C(C#N)=C/c1cc(C)n(C2CCCCC2)c1C,-4.3%,-14.5%,2.0%,.,.,?,?,.
Cc1cc(C)nc(SCC(=O)Nc2ncc3c(n2)CCCC3=O)n1,-1.0%,3.0%,3.1%,4.5%,-13.9%,5.8%,14.3%,-10.1%
CCCCC1(CCCC)NC(=S)N(Nc2ccc(C)cc2)C1=O,-2.8%,.,10.0%,-3.3%,-9.1%,-10.0%,4.7%,11.1%
FC(F)(F)c1ccc(Cl)c(NC(=S)NC2CC2)c1,10.7%,-5.5%,2.0%,0.7%,-1.3%,24.9%,1.1%,-1.3%
O=C(Cn1ncc(N2CCOCC2)c(Cl)c1=O)c1ccc(Cl)cc1,2.1%,?,-7.4%,.,-2.1%,?,?,.

# Results in SARS PLP yeast and StopGo reporter, for some of the entries so far:
canonical_smiles	SARS PLP yeast	StopGo reporter
CCCc1cc(CNC(=O)C2CCC(=O)N(Cc3ccccc3F)C2)on1 (stereo not drawn)	5.7%	10.5%
C=CCOc1ccc(/C(CC)=N/O)c(OC)c1	-4.1%	39.1%[activator]
CC(=O)N1CCc2cc([N+](=O)[O-])ccc21	.	-6.1%

# Later entries:
SMILES,SARS PLP yeast,StopGo reporter,RE007 growth inh,Cruzain Triton,NS1 function inh,MARV entry inh,LASV entry inh,Cruzain inh noDet
Cc1ccc(C(=O)Nc2nc(-c3ccccc3)ns2)cc1,.,32.2%[activator],.,-7.2%,.,2.6%[46.1 µM],13.1%[46.1 µM],5.7%
Cc1ccccc1NC(=O)c1cnn(-c2ccccc2)c1NC(=O)c1ccco1,0.8%,.,1.3%,0.5%,10.2%,6.2%,1.0%,-5.3%
Cc1ccccc1CC(=O)NCCN1CCCCC1,4.6%,-4.4%,1.4%,.,1.8%,13.5%,-25.9%,.
O=C(N/N=C/c1cc(Br)cc(Br)c1O)c1ccncc1,-4.6%,16.6%,-37.2%,.,.,?,?,.
Cc1ccc(Nc2ncnc3sccc23)c(C)c1,-1.1%,14.8%,2.6%,.,-30.0%,-10.2%,?,.
CCN(CC)c1ccc(Nc2cc3n(c(=O)n2)CCc2cc(OC)c(OC)cc2-3)cc1,0.8%,?,-0.7%,.,-3.8%,?,?,.
COCCNC(=O)CN(CCc1ccccc1)S(=O)(=O)c1ccc(Br)cc1,-1.1%,21.2%,5.4%,.,5.1%,-0.5%[46.1 µM],?,.
O=[N+]([O-])c1ccc(NN=C2CCCCC2)c([N+](=O)[O-])c1,.,-10.7%,-11.6%,.,.,-3.7%[46.1 µM],-2.2%[46.1 µM],.
Cc1ccc(OCC(O)CNC(=O)c2ccccc2C(=O)O)cc1 (stereo not drawn),2.6%,27.3%,-28.8%,2.2%,-3.7%,1.1%[46.1 µM],24.7%,2.1%
COC(=O)COc1ccc(S(=O)(=O)N2CCN(c3ccccc3F)CC2)cc1C,-11.1%,-8.0%,0.3%,7.0%,5.7%,-0.4%,1.2%,-3.6%
O=C(NCc1ccco1)c1cc(-c2ccccc2)nc2ccccc12,-11.9%,?,-0.8%,-6.6%,-57.6%,?,11.3%,-4.8%
COC(=O)c1ccc(CN2CCN(C3CCCC3)C(CCO)C2)cc1 (stereo not drawn),-0.7%,-2.1%,-9.5%,.,-1.1%,-13.0%[46.1 µM],0.0%,.
Cc1c(NC(=O)OCCNC(=O)COc2ccc(Cl)cc2Cl)sc(=S)n1C,-11.8%,-29.5%,-20.5%,-4.4%,?,?,-20.1%,14.8%
Cc1cccc(OCC(=O)Nc2ccc(N3CCN(C(=O)c4ccccc4)CC3)cc2)c1C,-2.9%,14.1µM*,-17.6%,.,5.2%,2.6%,-18.5%,.
N#Cc1c(NC(=O)/C=C/C(=O)O)sc2c1CCN(Cc1ccccc1)C2,-2.5%,2.4%,3.4%,.,3.7%,.,.,.
Cc1cc(Oc2ccc(N)cn2)ccc1Cl,-3.1%,28.4%,-2.1%,.,0.5%,8.1%,-3.6%,.
CC1=C(c2ccc(C)cc2)S(=O)(=O)N(Cc2ccc(C(=O)NCc3cccc(C)c3)cc2)C1=O,.,?,.,-2.4%,.,.,?,-5.3%
Cc1ccc(SCC(=O)Nc2ccc3oc(-c4ccccc4C)nc3c2)cc1,.,21.6%,.,-6.7%,.,5.5%[46.1 µM],-2.6%[46.1 µM],-7.6%
Cc1ccc(-c2noc(CCC(N)=O)n2)cc1,7.6%,43.5%[activator],-0.8%,2.5%,11.2%,7.0%,3.8%,3.3%
Cc1onc(-c2ccccc2)c1C(=O)Nc1nnc(C(C)(C)C)s1,0.1%,-3.5%,12.9%,.,4.8%,3.0%[46.1 µM],-3.8%[46.1 µM],.
O=C1NC2=C(CCc3ccccc32)C(c2ccc(Br)cc2)N1 (stereo not drawn),1.9%,?,6.4%,-4.5%,-1.1%,-17.2%&-0.2%,?,-4.0%
C=CCOc1ccc(C2NC(=S)NC(C)=C2C(=O)c2ccccc2)cc1OC (stereo not drawn),?,-16.4%,-8.2%,-4.2%,10.6%,-12.0%,?,?
C/C(=C\c1ccc(F)cc1)C(=O)c1c(C)cc(C)[nH]c1=O,-3.1%,-0.5%,-7.3%,.,2.7%,.,.,.
Cc1cccc(NC(=O)Cn2cc(C(=O)C3CC3)c3ccccc32)c1,1.4%,-0.9%,-15.4%,.,10.4%,-4.0%[46.1 µM],-13.3%,.

# One compound at a time (already shown).
# Cc1cc(Oc2ccc(N)cn2)ccc1Cl across the screens: SARS PLP yeast: -3.1%; StopGo reporter: 28.4%; RE007 growth inh: -2.1%; Cruzain Triton: .; NS1 function inh: 0.5%; MARV entry inh: 8.1%; LASV entry inh: -3.6%; Cruzain inh noDet: .
# C/C(=C\c1ccc(F)cc1)C(=O)c1c(C)cc(C)[nH]c1=O across the screens: SARS PLP yeast: -3.1%; StopGo reporter: -0.5%; RE007 growth inh: -7.3%; Cruzain Triton: .; NS1 function inh: 2.7%; MARV entry inh: .; LASV entry inh: .; Cruzain inh noDet: .

# (list continues)
SMILES,SARS PLP yeast,StopGo reporter,RE007 growth inh,Cruzain Triton,NS1 function inh,MARV entry inh,LASV entry inh,Cruzain inh noDet
Cc1ccc(O)c(C=Nc2ccc3[nH]ncc3c2)c1,-24.9%,1.6%,?,?,5.6%,?,0.9%,7.4%
O=C(Nc1nccs1)OCc1ccccc1,.,42.2%[activator],4.9%,.,.,15.6%[46.1 µM],-14.8%,.
CCSc1ncc(Cl)c(C(=O)N(Cc2ccccc2)c2ccc(OC)cc2)n1,.,?,.,-6.6%,.,?,-4.4%[46.1 µM],-6.5%
CSc1ccccc1NC(=S)Nc1ccc(S(N)(=O)=O)cc1,1.8%,-6.5%,-8.4%,.,.,5.7%[46.1 µM],6.6%[46.1 µM],.
CCOc1cc(C(=O)OCC(=O)c2c(N)n(C)c(=O)n(C)c2=O)cc(OCC)c1OCC,1.6%,-15.7%,8.6%,5.1%,-0.2%,-14.6%,-1.6%,?
C=CCN(c1ccccc1)S(=O)(=O)c1cccc(C(=O)NC2CCN(Cc3ccccc3)CC2)c1,1.2%,?,-10.1%,.,.,?,?,.
Cc1c(Nc2ncccc2C(=O)O)cccc1C(F)(F)F,.,-17.2%&40.0%,3.2%[18.4 µM],0.3%&2.8%,.,.,.,3.2%&-2.8%
Cc1ncoc1C(=O)N1CCCC(C(=O)c2cccc(OC(C)C)c2)C1 (stereo not drawn),-3.0%,-0.8%,12.6%,.,-0.5%,-4.3%[46.1 µM],0.7%[46.1 µM],.
COC(=O)[C@@H]1C[C@@]2(O)[C@H](O)[C@H](O)[C@H](O)C[C@H]2N1CC1CC1,0.4%,-5.7%,6.7%,-0.3%,-2.4%,.,.,2.3%
Cc1cccc(C)c1Nc1nnc(SCc2nc3ccccc3c(=O)[nH]2)s1,-7.7%,-29.0%,10.2%,-3.1%,18.4%,?,?,8.3%
O=C(Nc1ccccc1C(=O)O)c1cncc(Br)c1,-8.0%,41.0%[activator],1.3%[3.69 µM],2.1%,1.4%,13.3%,7.0%,3.5%
Cc1ccc(NC(=O)CCNS(=O)(=O)c2ccc3c(c2)CCCC(=O)N3)cc1,.,-5.7%,.,-1.7%,.,.,3.0%[46.1 µM],4.5%

# Screening results from PubChem.

# Rows were taken by chance; 4.7% or so of the library scored in one or more.
